Bioassay records (PubChem)
gsp agonist: activates gsp, the McCune-Albright syndrome mutation; gsp mutant cells, cAMP HTRF, 30 min; control for the full effect not named in the record; Potency, µM (doses to about 76.9 µM), for inactives: at the highest dose activation (cAMP increase), actives largely listed as activators; 340,000 tested, 0.13% active; AID 624287; active = well fitted activation curve with a large enough effect; inconclusive = small, poorly fitted or top-dose-only effect, or another doubt; inactive = no such curve, though single readings can be large or run the other way; cell line not stated here;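 also: phosphodiesterase inhibitor Ro 20-1724 added with compounds to block cAMP breakdown; potency is read from the fitted curve at half-maximal effect; nearly all actives have a fitted effect of over 60% in size; about a fifth of the inactives were tested at one dose only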
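Cells stably selected in G418 were plated at 2000/well, grown 16-24 hr, then given compounds in DMSO with the PDE inhibitor […] (300 uM solution added) for 30 min at 37C; cAMP was read by HTRF.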
Six1-Eya2 inh: Six1/Eya2 interaction inhibition; Q15475+O00167; AlphaScreen GST-Six1/His-Eya2 binding, biochemical; active compounds read low; control for the full effect not named in the record; activity change, % (no concentration beside the values); 360,000 tested, 0.56% active; in the data active = activity change below about -65%; inconclusive = about -30% to -65%; inactive = above about -30%; also: % is scaled to controls: 0 for no effect and ±100 for the full control effect
Target sequence (O00167 whole entry, looked up): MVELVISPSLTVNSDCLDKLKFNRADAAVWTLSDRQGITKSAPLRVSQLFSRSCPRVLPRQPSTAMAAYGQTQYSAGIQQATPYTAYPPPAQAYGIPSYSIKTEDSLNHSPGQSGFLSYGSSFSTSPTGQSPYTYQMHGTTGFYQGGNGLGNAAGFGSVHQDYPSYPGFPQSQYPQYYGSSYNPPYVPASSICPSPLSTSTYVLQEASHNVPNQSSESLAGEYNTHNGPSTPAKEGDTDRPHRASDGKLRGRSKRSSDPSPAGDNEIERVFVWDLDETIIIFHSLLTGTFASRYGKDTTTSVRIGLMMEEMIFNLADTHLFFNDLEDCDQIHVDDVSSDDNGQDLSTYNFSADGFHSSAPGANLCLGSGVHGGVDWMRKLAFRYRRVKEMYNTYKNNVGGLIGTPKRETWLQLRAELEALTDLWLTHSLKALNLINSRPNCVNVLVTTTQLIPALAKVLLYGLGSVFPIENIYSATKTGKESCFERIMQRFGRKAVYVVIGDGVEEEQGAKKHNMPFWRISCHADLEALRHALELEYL
Target sequence (Q15475 whole entry, looked up): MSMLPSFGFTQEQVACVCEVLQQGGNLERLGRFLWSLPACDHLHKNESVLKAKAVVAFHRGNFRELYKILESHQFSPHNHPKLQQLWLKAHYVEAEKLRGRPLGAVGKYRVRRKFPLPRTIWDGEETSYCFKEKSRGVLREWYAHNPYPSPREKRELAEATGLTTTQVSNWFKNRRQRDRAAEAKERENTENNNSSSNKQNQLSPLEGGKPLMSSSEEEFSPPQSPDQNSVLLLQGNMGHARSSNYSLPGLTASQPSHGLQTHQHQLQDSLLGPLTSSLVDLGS
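AlphaScreen luminescence read after one hour at 37 °C in darkness. Pin-transferred compounds met GST-Six1 and His-Eya2 protein (5X stock 250 nM/500 nM) plus glutathione donor and Ni-chelate acceptor beads (5X, 50 ug/mL).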
D2 ag: agonists of human D2 dopamine receptor (beta-arrestin) | P14416 | DiscoveRx PathHunter D2 beta-arrestin, luminescence, 90 min; 100% = 57 uM dopamine signal | activation, % (test concentration not listed) | 360,000 tested, 0.084% active; in the data active = activation above about 40%; inconclusive = about 15% to 40%; inactive = below about 15%; also: compound concentration not given in the record; the text of the record calls up to 30% inactive
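DiscoveRx PathHunter D2 beta-arrestin cells (2,100/well) attached overnight, then compound-stimulated 90 min at 37 C in HBSS/10 mM HEPES/0.1% Tween-20 buffer; beta-galactosidase complementation read by luminescence after 1 h at ambient temperature. Dopamine 57 uM final (EC100) as control.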
gsp antag: antagonizes gsp, the McCune-Albright syndrome mutation | Potency, µM (top dose mostly 76.9 µM), for inactives: at the top dose activity change, negative = inhibition, actives largely listed as inhibitors | 340,000 tested, 0.4% active | gsp-mutant cells, cAMP HTRF, 30 min; control for the full effect not named in the record; active = falling curve of any shape with a large fitted effect; inconclusive = falling curve, mostly with a smaller effect; inactive = flat or rising curve; cell line not stated here;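 also: intracellular cAMP measured with PDE inhibitor Ro 20-1724 present during compound exposure; potency is read from the fitted curve at half-maximal effect; % is scaled to controls: 0 for no effect and ±100 for the full control effect; nearly all actives have a fitted effect of over 65% in size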
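HTRF cAMP measurement after 30 min RT detection following 30 min, 37C compound treatment alongside […] (added as 300 uM solution) in G418-selected cells seeded at 2000/well and grown 16–24 h.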
D2 potentiator: human D2 receptor positive allosteric modulation. DiscoveRx D2 beta-arrestin cells, luminescence, 90 min; 100% = 57 uM dopamine signal. AID 624464. potentiation, % (test concentration not listed). P14416. 360,000 tested, 0.23% active; active = potentiation of 50% or more; inconclusive = 30% to 50%; inactive = 30% or less;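 also: compound concentration not given in the record; tested on top of an EC20 dose of dopamine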
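PathHunter beta-arrestin assay in DiscoveRx D2 cells. Compounds were added with an EC20 of dopamine (50 nM final) for 90 min at 37 deg C. Luminescence was read 1 h after detection reagent, with 57 uM dopamine as the EC100 control.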
CtBP-E1A inh: blocks the CtBP interaction with E1A. AlphaScreen GST-E1A/His-CtBP binding, 1536-well; active compounds read low; control for the full effect not named in the record. activity change, % (concentration not given with the values). 340,000 tested, 0.49% active. AID 651724; in the data active means activity change below about -65%; inconclusive means about -30% to -65%; inactive means above about -30%; also: % is scaled to controls: 0 for no effect and ±100 for the full control effect
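Steps: dispense buffer (Tris pH 8.0, NaCl 300 mM, TCEP 1 mM, BSA, Tween 20); add 5X protein mix (GST-E1A, His-CtBP, 125 nM each); pin 23 nL compound; 2 h at 37 °C, dark; add 5X beads (50 ug/mL); 1 h; read.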
Numbers without * were called inactive; ? = inconclusive; / = not tested or not shown; [ ] = remark or other dose. Outcome played no part in choosing rows (roughly 1.4% active in at least one column).

smiles	D2 ag	gsp agonist	Six1-Eya2 inh	gsp antag	D2 potentiator	CtBP-E1A inh
COc1cc(CN(C)CC2CCCN(CCc3ccc(F)cc3)C2)c(Cl)cc1O (stereo not drawn)	-3.1	?	12	-5%	-65	/
Cc1ccc(C(=O)CCS(=O)(=O)c2ccc(Br)cc2)cc1	-1.8	-67%[inhibitor]	6	15%	-5	-4
CC12CCC(C(=O)O)(c3nc4cc([N+](=O)[O-])ccc4nc31)C2(C)C (stereo not drawn)	0.6	0%[15.4 µM]	1	0%	0	9
CNC(=S)Nc1cccc(S(=O)(=O)NCc2ccco2)c1	-0.6	-34%[inhibitor]	0	-15%	18	-1
Nc1nc2c(s1)CC(c1ccccc1)CC2 (stereo not drawn)	-3.5	4%	-13	0%	15	-3
CC(=O)Nc1ccc(C(=O)Nc2nnc(CCc3ccccc3)s2)cc1	-0.6	?	11	8%	-3	0
Cn1cnnc1SCc1ccc(C(=O)O)cc1	1.1	-5%	6	-5%	1	5
Cc1ccc(NC(=O)CS(=O)CC(=O)N(c2ccccc2)C(C)C(=O)NC2CCCC2)cc1 (stereo not drawn)	1.0	-39%[inhibitor]	2	10%	-14	4
COc1ccc(/C=N/NC(=O)CCn2nnc3ccccc32)cc1	5.1	5%	-1	-8%	5	/
O=c1c2c3c(sc2nc(N2CCNCC2)n1CCc1ccccc1)CCCCC3	-1.4	1%[15.4 µM]	-10	6%	-2	-3
COc1cccc(CN(C)Cc2c(O)ccc3ccccc23)c1	-2.2	-2%	16	-1%	0	-10
CCCc1cc(C(=O)Cc2ccc(F)cc2)c(O)cc1O	1.9	?	1	?	?	0
Cc1ccc(S(=O)(=O)N2CCN(C(=O)c3cc(=O)c4ccccc4o3)CC2)cc1	1.1	28%[15.4 µM]	4	-17%	-1	1
CCOC(=O)c1oc2nc(CC(C)C)c3c(c2c1N)CCC3	-1.2	16%	-2	-9%	-17	0
CCCCn1c(N)c(N(CCC(C)C)C(=O)CC2CCCCC2)c(=O)[nH]c1=O	-1.6	5%[15.4 µM]	3	-14%	1	0
O=C(NCCO)/C(=C\c1ccco1)NC(=O)c1cccs1	-3.9	-15%[15.4 µM]	-3	1%	-3	-6
COC(=O)c1ccccc1NC(=O)c1c(O)c2c([nH]c1=O)CCCC2	0.2	-1%	1	4%	7	0
OC(c1ccc(CN2CCCCC2)cc1)c1ncc(-c2ccccc2)[nH]1 (stereo not drawn)	-7.1	/	5	/	-6	-28
Cc1cc(Oc2ccc(Cl)cc2)nc(SCC(=O)c2ccccc2)n1	-2.3	-9%	38	?	5	29
Cc1ccc(S(=O)(=O)N2CCCCC2)cc1C(=O)OCC(=O)NC(=O)NC12CC3CC(CC(C3)C1)C2	-4.9	13%	1	0%	2	-4
COc1ccc(-c2csc(NC(=O)c3ccc(S(C)(=O)=O)cc3)n2)cc1	5.4	28%	-9	-15%	-21	-8
Cc1cc(C(=O)CSc2nc(N)cc(=O)[nH]2)c(C)n1Cc1ccco1	-2.2	-13%	-8	-7%	-8	0
CC(=O)c1ccccc1OC(=O)COc1ccc(Cl)cc1C	2.6	6%[15.4 µM]	-4	7%	-4	/
CC(=O)Nc1ccc(N=Nc2ccccc2)cc1[N+](=O)[O-]	-1.5	-23%[15.4 µM]	?	-9%	2	-5
Cc1csc(SCC(=O)Nc2sccc2C(N)=O)n1	-6.6	-18%[15.4 µM]	-9	3%	-10	-6

smiles	D2 ag	gsp agonist	Six1-Eya2 inh	gsp antag	D2 potentiator	CtBP-E1A inh
O=C(CSC1=Nc2ccccc2C2=NC(CC(=O)NC3CCCCC3)C(=O)N12)NCc1ccco1 (stereo not drawn)	-3.4	19%	-6	0%	-24	0
COc1cccc(CC2(CO)CCCN(Cc3cn[nH]c3C3CCCCC3)C2)c1 (stereo not drawn)	-5.5	6%	1	9%	-18	4
Cc1cc(NC(=O)CN(C)C)c([N+](=O)[O-])cc1C	-3.6	-101%[inhibitor]	-1	7%	-3	/
O=C(O)c1cc2nccc(-c3ccc(F)cc3)n2n1	-1.4	5%	1	10%	-1	6
Oc1ccc(Cl)cc1C(C#Cc1ccccc1)N1CCOCC1 (stereo not drawn)	-0.1	-85%[inhibitor]	-1	-15%	4	7
CC(=O)Nc1nnc(CSCc2ccccc2F)s1	-1.5	-16%	2	1%	-1	-19
Cc1ccc2[nH]c(C(=O)N3CCOCC3)cc2c1	0.9	-12%[15.4 µM]	16	-13%	-5	-3
COc1ccc(S(=O)(=O)Nc2ccccc2OC)cc1C	-1.3	-23%	9	4%	-17	10
CC(C)Oc1nc(-c2ccccc2O)nc2ccccc12	-0.8	-5%	2	-2%	2	4
CCn1c(C)cc(/C=C2\SC(=O)N(CC(=O)Nc3ccc(C)c(C)c3)C2=O)c1C	-2.3	-11%	-6	0%	-5	7
Cc1csc(NC(=O)c2cc(C)nc3ccccc23)n1	-6.4	9%[15.4 µM]	-2	-7%	-1	-11
O=C(/C=C/c1ccccc1)Nc1ccc(C(=O)N2CCCCC2)cc1	11	-12%	2	-6%	-2	0
Cc1cc(C)n2nc(-c3sccc3-n3c(C)ccc3C)cc2n1	-5.4	10%	-9	4%[15.4 µM]	-12	5
O=C(c1ccc2nc[nH]c2c1)N1CCN(c2ncc(C(F)(F)F)cc2Cl)CC1	3.6	-5%[15.4 µM]	5	7%	5	-21
CCCCc1nc2cc(C(=O)N3CCC(O)CC3)ccc2o1	1.4	-17%	10	7%	0	/
Cn1c(SCc2ccc([N+](=O)[O-])cc2)nnc1-c1cccnc1	-5.4	-17%	-1	2%	-1	5
Cc1cc(NC(=O)CN2C(=O)CCSc3ccccc32)no1	-1.2	0%[15.4 µM]	2	4%	-5	1
O=C(Nc1ccc2c(c1)OCO2)Nc1ccc(Cl)cc1Cl	-1.0	-1%	-1	12%	-23	0
COc1ccc(/C=N/NC(=O)CCn2nc(C)cc2C)cc1O	-3.5	?	0	-4%	-7	-4
O=C(CSCc1ccccc1Cl)NCCSc1ccccn1	4.9	-1%[15.4 µM]	7	2%	9	21
O=C(NCc1ccc2c(c1)OCO2)c1nn2cccnc2c1Cl	2.4	0%	-8	-16%	2	2
CN(CC(=O)Nc1sc2c(c1C#N)CCCCC2)Cc1nc2ccccc2c(=O)[nH]1	-3.1	15%[15.4 µM]	?	-16%	-2	-15
CC(C)(C)OC(=O)N1CCC[C@H]1C(=O)N/N=C/c1ccc2nccnc2c1	-4.4	0%[15.4 µM]	?	8%	-3	?
O=C(CCC(=O)OCCOc1ccccc1)OCCOc1ccccc1	-4.8	/	0	/	-1	11
CCn1c(CN2CCN(c3ccc(Cl)cc3)CC2)nc2ccccc21	-0.5	-55%[inhibitor]	-10	-2%	-47	-4

Next part (2 carried over from the part before).
smiles	D2 ag	gsp agonist	Six1-Eya2 inh	gsp antag	D2 potentiator	CtBP-E1A inh
O=C(CCC(=O)OCCOc1ccccc1)OCCOc1ccccc1	-4.8	/	0	/	-1	11
CCn1c(CN2CCN(c3ccc(Cl)cc3)CC2)nc2ccccc21	-0.5	-55%[inhibitor]	-10	-2%	-47	-4
O=C(NC(=S)Nc1ccc(N2CCOCC2)cc1)c1cccc(Cl)c1Cl	0.9	31%	0	-7%	7	3
COc1ccc(C)cc1NC(=O)C(OC(=O)c1cnc(C)cn1)c1ccccc1 (stereo not drawn)	-0.7	-45%[inhibitor]	6	-11%	5	-10
O=C(/C=C/c1ccc(Cl)cc1Cl)N(Cc1ccc(Cl)cc1)C1CCS(=O)(=O)C1 (stereo not drawn)	-2.4	0%	4	-14%	-12	8
CCCC(=O)NCCc1cc(OC)c(OC)cc1Br	-1.6	-59%[inhibitor]	1	-4%	-11	-2
O=C(NCC1CC1)c1cccc2c1C(=O)c1ccc(-c3ccc(OC(F)(F)F)cc3)cc1S2(=O)=O	-1.7	-22%	15	?	-12	-20
CCC(=O)N1c2ccc(S(=O)(=O)CCC(=O)N3CCN(c4ccccc4)CC3)cc2CC1C (stereo not drawn)	3.6	17%	5	?	-3	1
COCCNC(=O)C(c1cccs1)N(C(=O)Cn1nnc2ccccc21)c1ccccc1 (stereo not drawn)	-3.3	10%	-1	4%	-5	6
O=C(c1cccs1)N1CCN(c2cccc(Cl)c2)CC1	-3.2	0%	-3	-11%	0	-6
CC(C)Cc1nn2c(N)c(/C=C3\C=Nc4ccccc43)c(=O)nc2s1	-0.8	11%[15.4 µM]	-16	-20%	-7	-7
CC1(C)CC(=O)C=C(c2cccc(O)c2)C1	-7.5	2%	13	6%	-1	-1
Cc1ccc2oc(C(Cl)(Cl)Cl)cc(=O)c2c1	9.2	-32%[inhibitor]	0	5%	76*	9
CCS(=O)(=O)N1Cc2ccccc2CC1C(=O)Nc1nccs1 (stereo not drawn)	-5.7	3%	-2	9%	8	-3
CCCCn1c(-c2cccc3ccccc23)nc2cc3[nH]c(=O)c(C(C)C)nc3cc21	5.0	?	-5	-5%	11	-3
COc1cccc2c(=O)n(CC(=O)NCCc3ccccc3)ccc12	-4.4	-5%	1	9%	-7	7
CN(C(=O)OCc1ccccc1)C(CC(N)=O)C(=O)O (stereo not drawn)	1.6	-10%	-4	6%	-11	-14
Cc1c(NS(=O)(=O)N2CCCC2)c(=O)n(-c2ccccc2)n1C	-1.0	-2%	3	5%	1	0
Cc1cccc(C(=O)O/N=C2\CCSc3ccc(C)cc32)c1	0.7	1%	6	-23%	-15	-2
C=C1CCN([C@@H](Cc2ccccc2)C(=O)NCc2ccc(Cl)c(Cl)c2)S(=O)(=O)c2ccccc21	-0.8	-28%	8	-2%	-5	24
Cc1c(C(=O)N2CCN(S(=O)(=O)c3ccc(F)cc3)CC2)oc2ccccc12	-3.1	1%	-2	-17%	4	1
COc1ccc(OC)c(NC(=O)Cn2c(=O)n(CC(=O)NCc3ccco3)c(=O)c3ccccc32)c1	0.2	-10%	1	-5%	-13	-13
COc1ccccc1N1CCN(C(=O)CCC(=O)Nc2nnc(C(C)C)s2)CC1	-4.8	20%	5	-4%	-14	4
CCc1c(C)c2ccc(OCC(=O)OC(C)C)c(C)c2oc1=O	6.4	0%	6	?	17	7
CC(C)(C)C(=O)/C=c1\[nH]c(=O)/c(=C\c2ccc(F)cc2)s1	-4.9	-11%	-8	?	-2	-2
[2H]c1c([2H])c([2H])c(C(=O)c2sc(N3CCCCCC3)nc2-c2ccccc2)c([2H])c1[2H]	-5.3	12%	27	?	-24	44
Cc1cc2nc(C(C)(C)C)cc(N)n2n1	0.2	?	3	4%	-10	4
